From PubChem BioAssay
YjeE inh: inhibitors of E. coli YjeE (TsaE). purified YjeE, fluorescence polarisation of a bound ADP probe. hit rate 0.05% among 71,000. AID 605. Potency, µM; active = well fitted falling curve; inconclusive = weaker or top-dose-only fall, or a rising curve; inactive = flat or poorly fitted curve;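 further: top concentration of the series not given in the record; excess ADP was the control for the full effect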
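Purified YjeE (10 uM) with BODIPY Texas Red-labeled ADP probe (2 uM); compounds pin-transferred, 15 min at room temperature. Binding inhibition read as decreased fluorescence polarization; ADP titration as control.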
Bst PK mod: modulators of Bacillus stearothermophilus pyruvate kinase; partly purified Bacillus stearothermophilus pyruvate kinase, luminescence ATP production; ribose 5-phosphate activator present at AC10; Potency, µM; hit rate 1.2% among 51,000; AID 361; in the data active means potency below about 11 µM; inconclusive means mostly about 12 µM to 25 µM; inactive means weaker than that;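 the screen sought inhibitors and activators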;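 further: potency means the concentration at half of the fitted maximal effect; scaled between full activation by ribose 5 phosphate and full inhibition by luteolin; about four in five hits inhibit and the cells do not say which; series up to 57 µM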
* = called active by the depositor; i = inactive; . = not tested or not shown. This is a subset (hit frequency here may not be typical).

Bst PK mod	YjeE inh	molecule
.	i	COC(=O)[C@@]1(Cc2ccc(OC)cc2)[C@H]2c3cc(C(=O)N4CCCC4)n(Cc4ccc(C)o4)c3C[C@H]2CN1C(=O)c1ccccc1
.	i	Cc1ccc2c(c1)c1c3n2CCN(C(=O)CN2CCN(C)CC2)C3CCC1 (configuration not stated)
>57	i	O=C(Cc1c(F)cccc1Cl)Nc1ccncc1
>57	i	CC(C)(C)C1CCc2onc(C(=O)NC3CCCC3)c2C1 (configuration not stated)
.	i	O=C(CNC(=O)C1CCCCC1)NCCCO
>57	i	COc1ccc(-c2nsc3c(N4CCN(S(=O)(=O)c5ccccc5)CC4)ncnc23)cc1
.	i	COc1cc2nc(N3CC=[N+](C(=O)c4ccco4)CC3)nc(N)c2cc1OC
.	i	CC(=O)[C@H]1CC[C@@H]2[C@H]3CC=C4C[C@@H](O)CC[C@]4(C)[C@H]3CC[C@]12C
>57	i	CCOc1ccc(N2C(=O)CC(Sc3nc(C)cc(C)c3C#N)C2=O)cc1 (configuration not stated)
.	i	O=C(CCN1C(=O)c2ccccc2C1=O)NCCN1CCOCC1
>57	i	O=C(NCCN1CCOCC1)c1cc2c(=O)n3ccccc3nc2n1Cc1ccccc1
>11	i	O=C(Nc1ccc(S(=O)(=O)N2CCc3ccccc3C2)cc1)C1CCCO1 (configuration not stated)
>57	i	O=C(C1CCC(C(=O)N2CCc3ccccc32)CC1)N1CCc2ccccc21 (configuration not stated)
>57	i	CCCCC(=O)NC1(C(F)(F)F)C(=O)Nc2c1c(=O)[nH]c(=O)n2Cc1ccco1 (configuration not stated)
>57	i	CCC(C)n1nccc1NC(=O)C(C)OC(=O)c1cc2ccccc2[nH]1 (configuration not stated)
>57	i	CCCCn1c(NC(=O)c2ccccc2)c(C#N)c2nc3ccccc3nc21
>57	i	OC(COc1ccc2ccccc2c1Cl)CN1CCOCC1 (configuration not stated)
>57	i	O=S(=O)(Nc1cccnc1)c1ccc(C2CCCCC2)cc1
.	i	Clc1ccc2c(N3CCC(CCC4CCN(c5ncnc6cc(Cl)ccc56)CC4)CC3)ncnc2c1
.	i	CCOC(=O)N1CCC(N2C(=O)c3ccc(C(=O)NC4CCCCCC4)cc3C2=O)CC1
>57	i	COC(=O)c1sc(NC(=O)Cc2cccs2)nc1C
>57	i	CC(C)(C)N(Cc1ccccc1)C(=O)CSc1nnc(CNc2ccc(F)cc2)o1
>57	i	Cc1ccc(-n2c(Cc3cccs3)nnc2SCC(=O)OC(C)C)cc1
>57	i	O=C(CSc1oc(-c2ccc(F)cc2)nc1S(=O)(=O)c1ccccc1)NCC1CCCO1 (configuration not stated)
>57	i	O=c1c2ccccc2n2cnnc2n1-c1ccccc1
>57	i	CCOC(=O)c1ccc(CNC(=O)C2CCCCC2C(=O)OCC(F)(F)F)o1 (configuration not stated)
>57	i	Cc1occc1C(=O)Nc1c(F)cc(F)cc1Br
.	i	CNC/C(Cl)=N/S(=O)(=O)c1ccc(C)cc1
>57	i	CCc1nc(C)cc(N)c1OCc1ccccc1
>57	i	COC(=O)c1cc2sccc2n1Cc1nc(-c2ccc(OC)cc2)oc1C
i	i	Fc1ccc2c(c1)[C@H]1OCC[C@H]1[C@@H](c1ccco1)N2
>57	i	O=C(Nc1nc(-c2cccnc2)cs1)c1ccc(S(=O)(=O)N2CCOCC2)cc1
.	i	CNC(=O)CN1C(=O)c2ccccc2S1(=O)=O
>26	.	CSc1nc2sc3c(c2c2nnnn12)CCCC3
>57	i	COc1ccccc1-c1nnc(SCCN2CCOCC2)n1-c1ccc(C)cc1
>57	i	CN(C)C(=O)CSc1nnc(CCNC(=O)OC(C)(C)C)o1
>57	i	Cc1noc(C)c1COC(=O)c1cccnc1SCC(=O)Nc1ccc2c(c1)OCO2
>57	i	O=C(O)C(F)(F)S(=O)(=O)O
>57	i	CC(C)CCn1nnnc1C(c1ccc(F)cc1)N1CCN(C(=O)c2ccco2)CC1 (configuration not stated)
>57	i	COc1ccc(NC(=O)c2oc3cc(C)c(C)cc3c2C)c(OC)c1
>57	i	CCc1c(C)nc2ncnn2c1N1CCCC(C(=O)NCCc2ccccc2)C1 (configuration not stated)
>57	i	Cc1ccccc1NC(=O)c1ccccc1
>57	i	COc1cccc(C2=CC(c3cc(OC)ccc3OC)n3nnnc3N2)c1 (configuration not stated)
>57	i	CC(=O)[C@@H]1[C@@H]2C(=O)N(c3ccc(F)c(Cl)c3)C(=O)[C@@H]2C2c3ccccc3C=CN21 (some centres not stated)
>57	i	COc1cccc(-n2c(SC)nnc2-c2cnccn2)c1
>57	i	CCN(CC)CCOc1nc(C)nc2c1oc1ccccc12
>57	i	CCOC(=O)C1CCCN(C(=O)c2cc3c(=O)n4cccc(C)c4nc3n2C)C1 (configuration not stated)
.	i	O=c1cc(Cn2ccnc2)c2cc3c(cc2o1)CCC3
>57	i	COc1ccc(-n2c(=O)c3ccccc3n(CC(=O)NC3CCCC3)c2=O)cc1
.	i	COc1cccc(-c2nc(N3CCNCC3)c3ccccc3n2)c1
>57	i	Cc1ccccc1NC(=O)c1c(F)c(F)c(F)c(F)c1F
>26	.	O=c1c(-c2ccc3c(c2)OCCO3)c(C(F)(F)F)oc2cc(O)cc(O)c12
>57	i	O=C(CSc1nnc2scc(-c3ccccc3)n12)N1CCN(Cc2ccccc2)CC1
.	i	CSc1cccc(NS(=O)(=O)c2ccc3c(c2)oc(=O)n3C)c1
>57	i	Cc1cc(C)cc(NCC(=O)Nc2c(C)cccc2C)c1
>57	i	COc1ccc(-n2nnnc2-c2cccc(OC)c2)cc1
>57	i	O=C(CSCc1ccccc1)N1CCN(C(=O)c2ccco2)CC1
.	i	O=[n+]1c2c(n([O-])c3c1CCCC3)CCCC2
>57	i	Cc1ccc(S(=O)(=O)NCc2csc(C)n2)c(C)c1
.	i	CC(Sc1n[nH]c(=O)[nH]c1=O)C(=O)OCc1ccccc1 (configuration not stated)

Other entries follow:
Bst PK mod	YjeE inh	molecule
i	i	CCN1CCN(CCCNC(=O)c2cc3cc4ccc(OC)cc4nc3o2)CC1
>57	i	CC1CCCN(c2oc(-c3cccc4ccccc34)nc2C#N)C1 (configuration not stated)
>57	i	O=C(Oc1ccccc1C(=O)N1CCOCC1)c1cccc(Br)c1
i	i	CN(C)c1ccc(-c2noc(-c3ccccc3O)n2)cc1
>57	i	c1ccc(-c2nn3c(Cn4cnc5ccccc54)nnc3s2)cc1
.	i	CC(C)OC(=O)C1C2C=CC3(CN(C(C)c4ccc(Br)cc4)C(=O)C13)O2 (configuration not stated)
>57	i	CCCCCCn1c(CN2CCCCC2C)nc2c1c(=O)n(C)c(=O)n2C (configuration not stated)
>57	i	CCOc1ccc(S(=O)(=O)Nc2cccc(Cl)c2)cc1
.	i	C=CCOC(=O)c1sc(N2C(=O)c3oc4ccccc4c(=O)c3C2c2ccco2)nc1C (configuration not stated)
.	i	CC(C)Cc1cc(C(=O)Nc2c(F)cc(F)cc2Br)no1
>57	i	Cc1ccc(NS(=O)(=O)c2cc(C(=O)O)ccc2Cl)c(C)c1
>57	i	CC(C)OC(=O)CSc1nnc(-c2cccnc2)n1N
>57	i	COc1cc(-c2nn3c(-c4ccccc4)nnc3s2)cc(OC)c1OC
.	i	O=C(c1cccc(F)c1)N1CCC2(CCCN(c3ccc(-c4ccccc4)cc3)C2)CC1
>26	.	C=CCn1c(SCC(=O)OC)nc2sc3c(c2c1=O)CCN(C)C3
>26	.	C[C@]12CC[C@@H]3c4ccc(O)cc4CC[C@H]3[C@@H]1CC[C@@H]2OC(=O)CCC(=O)O
.	i	CC(=O)N1[C@H](Cc2ccccc2)C=C[C@]1(C)C(=O)O
.	i	CC(C)(C)Nc1ncnc2c1cnn2-c1ccccc1
.	i	CCOc1ccc(-n2c(Cc3cc(=O)[nH]c(=O)[nH]3)nnc2SCC(=O)OC)cc1
>57	i	C=CCn1c(N)c(C(=O)OC(C)CC)c2nc3ccccc3nc21 (configuration not stated)
>11	.	CCCCC(=O)O[C@H]1CC[C@H]2[C@@H]3CCc4cc(O)ccc4[C@H]3CC[C@]12C
>57	i	COc1ccc(C2CC(=O)C3=C(C2)Nc2ccccc2N(C(=O)C2CC2)C3c2cccnc2)cc1OC (configuration not stated)
>57	i	C=CCn1c(SCc2cc(=O)n3ccsc3n2)nnc1C1CCCCC1
>57	i	Cc1cc(-n2c(SCCC#N)nnc2-c2cccnc2)ccc1Cl
>57	i	Cc1ccc(S(=O)(=O)C(C#N)c2nc3ccccc3nc2N2CCC(C)CC2)cc1 (configuration not stated)
>57	i	COC(=O)c1cccc(NC(=O)Cn2nnc3ccccc32)c1
.	i	CCc1nnc(NC(=O)C(C)Sc2ccccc2)s1 (configuration not stated)
.	i	O=C(O)CCCC(=O)Nc1nc(-c2ccc(F)cc2)cs1
.	i	CNc1ncnc2c1ncn2[C@H]1C[C@@H](OP(=O)(O)O)[C@H](COP(=O)(O)O)O1
>57	i	CCNC(=O)COC(=O)c1ccc(S(=O)(=O)N2CCCCCC2)cc1
>57	i	COCc1c(C(N)=O)nnn1-c1nonc1N
>57	i	Cc1ccc(Oc2nsnc2N2CCOCC2)cc1
>57	i	CN(C)S(=O)(=O)N1CCN(C(=O)N(c2ccccc2)c2ccccc2)CC1
.	i	COc1ccc2c(c1)CCc1c(C(=O)N3CCCC3)noc1-2
>57	i	CS(=O)(=O)N1CCCC(C(=O)NCCc2ccccc2)C1 (configuration not stated)
.	i	COc1cc(CNC(=O)OCC(C)C)cc(OC)c1OC
>57	i	O=c1oc2c(CN3CCCCCC3)c(O)ccc2cc1-c1nc2ccccc2[nH]1
.	i	CN1CCN(c2ncc3nc(-c4ccccc4)c(=O)n(Cc4cccs4)c3n2)CC1
>57	i	Cc1cc(C)n(-c2nc3ccccc3c(=O)n2OCCOc2ccccc2)n1
.	i	Cc1cccc([N+](=O)[O-])c1C(=O)O
.	i	COCCN1Cc2cccc(C(=O)N3CCN(c4cc(C)ccc4C)CC3)c2C1=O
>57	i	O=C(O)C1CSC2(CCN(Cc3ccccc3)CC2)N1 (configuration not stated)
>57	i	CC(C)(C)c1cc(C(=O)O)c(CN2CCCCC2)o1
.	i	COc1cccc(-c2nc(CS(=O)(=O)CC(=O)N3CCN(C4CCCCC4)CC3)c(C)o2)c1
>57	i	O=C(Nc1ccc2c(c1)CCC2)C1CCN(c2c3c(nc4ncnn24)CCC3)CC1
9.5*	i	O=C(Nc1ccc2nc(-c3cccs3)[nH]c2c1)c1ccco1
>57	i	CCOc1cc(S(=O)(=O)NCC2OCCc3ccccc32)c(OCC)cc1-n1cnnn1 (configuration not stated)
>57	i	C=CCn1c(=N)n(CC(=O)OCC)c2ccccc21
>57	i	COc1ccc(CCN2C(=O)CC(NCc3ccc4c(c3)OCO4)C2=O)cc1OC (configuration not stated)
.	i	CCOC(=O)c1ccc(CSc2nncn2N)o1
.	i	C=C(C)COc1ccc2c3c(c(=O)oc2c1OCC(=C)C)CCC3
.	i	O=C(NC1CCCCC1)N1CCC(c2nc3ccc(Cl)cc3[nH]2)CC1
>57	i	Cc1ccc(-c2nnc(N3CCN(c4ccccn4)CC3)c3ccccc23)cc1
>57	i	CCc1ccc(C2C(C(C)=O)=C(C(=O)OC)Nc3nnnn32)cc1 (configuration not stated)
0.45*	i	CCOc1ccc(-c2cc(C(=O)N3CCN(c4ccccn4)CC3)c3ccccc3n2)cc1
.	i	CCC(=O)Nc1sc2c(c1C(N)=O)CCC2
>57	i	Nn1cnn(Cc2ccccc2)c1=S
>57	i	CS(=O)(=O)N1CCN(c2ccc(NC(=O)c3ccc(Br)o3)cc2)CC1
>57	i	COC(=O)c1cc(OC)c(OC)cc1NC(=O)Nc1ccccc1OC
.	i	Cc1cc(C)c2nc(N3CCCC3)c(C#N)cc2c1

Following part
Bst PK mod	YjeE inh	molecule
>57	i	Cc1cnnc2c1-c1no[n+]([O-])c1CC2
.	i	COc1ccc(NS(=O)(=O)c2c(C)n(C)c(=O)n(C)c2=O)cc1OC
>57	i	CCNc1nc(SCc2ccccc2)nc(N2CCOCC2)n1
.	i	CCn1nc(NC(=O)c2ccco2)c2cc3ccc(C)cc3nc21
>57	i	COc1ccc(C(=O)NC(C)c2nc3ccccc3n2C)cc1OC (configuration not stated)
